Screening data: PubChem BioAssay, several laboratories
HNF4A DNA FP: change in binding of human HNF4 alpha to DNA; P41235; HNF4a-FITC DNA binding, fluorescence polarization, 1 h; activity change, % at 10 µM; 360,000 compounds, 0.3% hits; AID 1224865; in the data active = activity change above about 30%, passing the limit was not always enough;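 note: controls were the assay level and a saturating level of protein; the project sought stronger binding though the title names inhibitors; some compounds called inactive have numbers as strong as hits; positive values seem to mean higher polarization but the record does not say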
FGF22 binding: shifts melting point of recombinant human FGF22; recombinant FGF22 thermal shift, SYPRO orange fluorescence; percent of sucrose octasulfate shift, DMSO zero; calls only at 9.99 µM; 340,000 compounds, 1.5% hits; Q9HCT0;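 active = melting point raised past a set limit in the mean and every replicate; inconclusive = no clear call; three in four hits are not shown here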
Target sequence (Q9HCT0 whole entry, looked up): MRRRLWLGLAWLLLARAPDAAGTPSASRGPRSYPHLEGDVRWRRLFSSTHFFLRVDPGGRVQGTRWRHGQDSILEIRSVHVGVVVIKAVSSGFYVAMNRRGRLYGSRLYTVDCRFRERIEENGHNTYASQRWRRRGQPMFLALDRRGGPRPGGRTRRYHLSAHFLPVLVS
RanGTP-Impb inh: disruptors of Ran-importin-beta complex formation – biochemical, FRET, CFP-Ran, YFP-importin-beta, homogeneous, primary screen; cell-free CFP-Ran/YFP-importin-beta FRET ratio; inhibition, % (concentration not given with the values); 300,000 compounds, 1.1% hits;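 active = most replicates above 15%; inconclusive = exactly half above 15%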;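 note: 0% = DMSO wells and 100% = Ran loaded with GDP instead of GTP; wells of about 40 µL received 100 nL stock; the first replicate is given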
UCH37 DUB inh: blocks the human deubiquitinase UCH37 | Q9Y5K5 | inhibition, % (test concentration not listed) | 330,000 compounds, 0.33% hits | purified proteasome/UCH37, Ub-AMC cleavage fluorescence;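 active = mean of two replicates above 20%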;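 note: 0% = compound-free wells with enzyme and 100% = wells lacking proteasome; stock transfer was 100 nL into about 20 µL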
Target sequence (Q9Y5K5 whole entry, looked up): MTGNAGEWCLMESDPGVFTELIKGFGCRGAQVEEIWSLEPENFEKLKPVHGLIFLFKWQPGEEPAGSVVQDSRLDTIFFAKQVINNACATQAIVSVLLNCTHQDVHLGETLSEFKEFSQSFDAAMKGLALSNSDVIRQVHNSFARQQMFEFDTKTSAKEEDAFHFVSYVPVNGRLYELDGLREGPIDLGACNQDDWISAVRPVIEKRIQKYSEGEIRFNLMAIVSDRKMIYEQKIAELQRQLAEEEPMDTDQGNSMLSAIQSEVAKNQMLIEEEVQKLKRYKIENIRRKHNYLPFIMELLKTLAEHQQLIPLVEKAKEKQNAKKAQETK
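Material: human UCH37 enzyme supplied as purified proteasome complex / Amount: 0.15 nM proteasome as dispensed / Buffer or medium: pH 7.4 Tris-HCl (50 mM) with ovalbumin, ATP-MgCl2, DTT / Times: preincubation 30 min, reaction 25 min, room temperature / Technique: AMC fluorescence from Ub-AMC cleavage, excitation 355 nm, emission 460 nm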
AF4-AF9 inh: inhibitors of human MLL-AF4/AF9 interaction; P42568; AlphaScreen, biotin-AF4 peptide binding to FLAG-AF9; inhibition, % at 10 µM; 350,000 compounds, 0.47% hits; AID 651704;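 active = every replicate reaching a set inhibition limit, whatever the replicate mean, cut at about 25% in these data; inconclusive = mean inhibition reaches that limit but some replicates miss it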;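 note: 0% = plate neutral control median and 100% = total signal loss; the record names both 10 and 1 µM as test concentration; the first replicate is given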
Target sequence (P42568 whole entry, looked up): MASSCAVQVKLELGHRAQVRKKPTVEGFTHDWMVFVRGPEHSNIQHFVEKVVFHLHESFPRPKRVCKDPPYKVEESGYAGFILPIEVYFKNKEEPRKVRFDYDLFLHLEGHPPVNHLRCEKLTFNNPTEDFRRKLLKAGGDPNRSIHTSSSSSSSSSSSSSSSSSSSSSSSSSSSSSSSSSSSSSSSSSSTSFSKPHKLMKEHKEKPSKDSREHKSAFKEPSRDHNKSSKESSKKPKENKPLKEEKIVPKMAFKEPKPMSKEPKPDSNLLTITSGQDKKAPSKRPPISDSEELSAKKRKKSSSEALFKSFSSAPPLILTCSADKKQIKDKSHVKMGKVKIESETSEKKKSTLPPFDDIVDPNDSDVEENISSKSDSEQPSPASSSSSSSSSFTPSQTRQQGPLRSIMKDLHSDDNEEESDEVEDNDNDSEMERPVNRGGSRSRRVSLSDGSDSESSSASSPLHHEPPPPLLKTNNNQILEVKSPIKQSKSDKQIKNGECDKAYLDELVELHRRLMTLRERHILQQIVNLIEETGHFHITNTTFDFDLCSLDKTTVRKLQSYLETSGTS
E coli growth: inhibitors of Escherichia coli growth | OD600, 23 h; hits give low values | OD600 absorbance (no concentration beside the values) | 330,000 compounds, 0.21% hits | AID 1053175;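 active = OD600 absorbance below the run mean of sample wells minus 3.6 SD, in any replicate, cut at about 0.56 in these data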;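 note: stock transfer was 300 nL into about 60 µL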
Vif A3G: HIV-1 Vif–A3G interaction blockers – biochemical, TR-FRET, GST-Vif 1-94, biotin-A3G peptide, dose response retest, primary screen (AID 1117319) | one-dose inhibition, %; IC50 in µM for titrated hits | 260,000 compounds, 0.57% hits | TR-FRET GST-Vif / biotin-A3G peptide binding; higher % means a stronger effect; test concentration not given here; strong numbers were not always called active;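 active = above the screen mean plus three standard deviations and confirmed in dose response; inconclusive = results disagree or hit not tested in dose response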;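 note: Vif residues 1-94 fused to GST binding biotinylated APOBEC3G peptide 110-148; 0% = full assay without inhibitor and 100% = GST in place of GST-Vif; retest series ran down from 100 µM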
* = called active by the depositor. Only part of the results is shown. The share of hits here may be higher or lower than overall.

For COc1cccc(-n2c(N)c(C#N)c3ccc([N+](=O)[O-])cc3c2=O)c1 the results were RanGTP-Impb inh -1.0, UCH37 DUB inh 1.4, E coli growth 0.72 and Vif A3G 10%.
COc1ccccc1OCCNC(=O)C1CC(=O)N(Cc2ccccc2)C1 (stereo unspecified) was read as HNF4A DNA FP 3.2, FGF22 binding inactive, UCH37 DUB inh 2.4, AF4-AF9 inh 0.3, E coli growth 0.69 and Vif A3G -7%.
For O=C(/C=C/c1ccccc1)N1CCN(c2ccccn2)CC1 the results were HNF4A DNA FP 2.0, RanGTP-Impb inh -3.9, UCH37 DUB inh 4.0, E coli growth 0.71 and Vif A3G -1%.
Screening N/C(COc1ccccc1)=N\NC(=O)c1cccnc1Oc1ccccc1 returned HNF4A DNA FP -0.5, RanGTP-Impb inh -1.3, UCH37 DUB inh 3.4, E coli growth 0.71 and Vif A3G 1%.
`CCC[C@H]1CN(c2ccc(OC)cc2)C(=O)[C@@H]1CC(=O)NC` gave HNF4A DNA FP 0.3, FGF22 binding inactive and AF4-AF9 inh -2.1.
CCCCOc1ccc(C(CC(=O)NC)C(=O)O)cc1 (stereo unspecified) was read as HNF4A DNA FP 4.5, RanGTP-Impb inh -0.9, UCH37 DUB inh 2.4, E coli growth 0.73 and Vif A3G 0%.
`CCC(CC)NC(=O)Nc1ccccc1C` gave HNF4A DNA FP 2.0, FGF22 binding inactive, RanGTP-Impb inh -0.5, UCH37 DUB inh 3.1, AF4-AF9 inh -6.6, E coli growth 0.7 and Vif A3G 13%.
O=C(NCc1ccco1)c1csc(Nc2ccccc2Cl)n1 was read as HNF4A DNA FP 3.1, RanGTP-Impb inh -0.3, UCH37 DUB inh 0.7, E coli growth 0.65 and Vif A3G -7%.
`COC(=O)C[C@@H]1C=C[C@@H](NC(=O)Nc2cccc(F)c2)[C@@H](CO)O1` gave HNF4A DNA FP -0.9, FGF22 binding inactive and AF4-AF9 inh -1.0.
For Cn1ncc2c(NNC(=O)c3ccc(Cl)c(Cl)c3)ncnc21 the results were HNF4A DNA FP -0.2, RanGTP-Impb inh -2.3, UCH37 DUB inh 3.2 and E coli growth 0.68.

Some of these compounds in order of count of non-hydrogen atoms, low to high:
CCCCOc1ccc(C(CC(=O)NC)C(=O)O)cc1 (stereo unspecified) was read as HNF4A DNA FP 4.5, RanGTP-Impb inh -0.9, UCH37 DUB inh 2.4, E coli growth 0.73 and Vif A3G 0%.
`CCC[C@H]1CN(c2ccc(OC)cc2)C(=O)[C@@H]1CC(=O)NC` gave HNF4A DNA FP 0.3, FGF22 binding inactive and AF4-AF9 inh -2.1.
`COC(=O)C[C@@H]1C=C[C@@H](NC(=O)Nc2cccc(F)c2)[C@@H](CO)O1` gave HNF4A DNA FP -0.9, FGF22 binding inactive and AF4-AF9 inh -1.0.
For COc1cccc(-n2c(N)c(C#N)c3ccc([N+](=O)[O-])cc3c2=O)c1 the results were RanGTP-Impb inh -1.0, UCH37 DUB inh 1.4, E coli growth 0.72 and Vif A3G 10%.
COc1ccccc1OCCNC(=O)C1CC(=O)N(Cc2ccccc2)C1 (stereo unspecified) was read as HNF4A DNA FP 3.2, FGF22 binding inactive, UCH37 DUB inh 2.4, AF4-AF9 inh 0.3, E coli growth 0.69 and Vif A3G -7%.

More structures follow:
Screening COC(=O)c1ccc(C(C(=O)NCc2ccccc2)N(Cc2cccs2)C(=O)c2cnccn2)cc1 (stereo unspecified) returned HNF4A DNA FP 4.5, RanGTP-Impb inh -1.5, UCH37 DUB inh 5.5, E coli growth 0.74 and Vif A3G 1%.
For Cc1onc(-c2ccccc2)c1C(=O)N/N=C/c1cccc(O)c1 the results were HNF4A DNA FP -1.7, FGF22 binding inactive, RanGTP-Impb inh 5.8, AF4-AF9 inh 2.7 and Vif A3G 2%.
Cc1ccccc1-n1nc(SCC(=O)O)sc1=S was read as HNF4A DNA FP 1.6, FGF22 binding inactive, RanGTP-Impb inh 0.2, UCH37 DUB inh 3.6, AF4-AF9 inh -6.1 and E coli growth 0.68.
Screening CC(C)N1CCC(N2CCN(Cc3ccc(-c4ccccc4Cl)o3)CC2CCO)CC1 (stereo unspecified) returned HNF4A DNA FP 4.2, FGF22 binding inactive, RanGTP-Impb inh 6.0, UCH37 DUB inh 0.7, AF4-AF9 inh 2.8 and E coli growth 0.65.
Cc1ccc(SCc2noc(C(=O)NCC3CCCO3)c2C(=O)O)cc1C (stereo unspecified) was read as HNF4A DNA FP -3.7, FGF22 binding inactive, RanGTP-Impb inh -2.1, UCH37 DUB inh -1.6, AF4-AF9 inh -2.7, E coli growth 0.65 and Vif A3G 18%.
O=C(O)c1cccc(NC(=O)c2ccc3c(c2)C(=O)N(c2cccc([N+](=O)[O-])c2)C3=O)c1 was read as HNF4A DNA FP -1.3, FGF22 binding inactive, RanGTP-Impb inh 2.7, UCH37 DUB inh 5.2, AF4-AF9 inh -1.8, E coli growth 0.68 and Vif A3G 3%.
`CCOC(=O)C1CCN(C(=O)COC(=O)c2nc3nc(C)cc(C)n3n2)CC1` gave HNF4A DNA FP 1.2, FGF22 binding inactive, RanGTP-Impb inh 8.9, UCH37 DUB inh -0.2, AF4-AF9 inh -1.6, E coli growth 0.69 and Vif A3G 1%.
CC1(C)CC(=O)C=C(c2ccc3c(c2)OCO3)C1 was read as HNF4A DNA FP -2.6, RanGTP-Impb inh 2.1, UCH37 DUB inh 1.4 and E coli growth 0.69.
CCCCOC(=O)CCc1nc2ccccc2[nH]1 was read as HNF4A DNA FP -1.5, RanGTP-Impb inh inconclusive, UCH37 DUB inh 0.8, E coli growth 0.68 and Vif A3G -1%.
CCOc1ccc(CC(=O)C2C(=O)CC(C)(C)CC2=O)cc1OCC was read as HNF4A DNA FP -1.3, RanGTP-Impb inh -0.1, UCH37 DUB inh -0.3, E coli growth 0.73 and Vif A3G 1%.
O=C1C=C(c2ccc(F)c(Cl)c2)C[C@@H](c2ccc(F)cc2)C1 was read as HNF4A DNA FP -3.6, FGF22 binding inactive, UCH37 DUB inh 1.2 and AF4-AF9 inh 1.0.
CCOc1ccc(Nc2ccc(N3C(=O)CCC3=O)cc2[N+](=O)[O-])cc1 was read as HNF4A DNA FP -1.9, FGF22 binding inactive, RanGTP-Impb inh 2.4, UCH37 DUB inh 4.3, AF4-AF9 inh 12, E coli growth 0.7 and Vif A3G 1%.
`Cc1cc(C)n(CC(O)Cn2c3ccccc3c3ccccc32)n1` (stereo unspecified) gave HNF4A DNA FP 0.5, RanGTP-Impb inh -6.7, UCH37 DUB inh -3.0, E coli growth 0.75 and Vif A3G -4%.
`CC[C@]12c3[nH]c4cc(-c5ccco5)ccc4c3CCN1C(=O)[C@@H](CC(=O)NCC13CC4CC(CC(C4)C1)C3)C[C@@H]2C(=O)N1CCN(C(=O)c2ccco2)CC1` gave HNF4A DNA FP 6.4, FGF22 binding inactive, UCH37 DUB inh -5.1, AF4-AF9 inh 3.6, E coli growth 0.7 and Vif A3G 7%.
For Cc1ccccc1S(=O)(=O)c1cc2ccccc2nc1N the results were HNF4A DNA FP 0.3, FGF22 binding inactive, RanGTP-Impb inh inconclusive, UCH37 DUB inh -112, AF4-AF9 inh -4.6 and E coli growth 0.69.
FC(F)(F)c1ccc(Cl)c(-n2c(Cc3cccs3)n[nH]c2=S)c1 was read as HNF4A DNA FP 0.1, FGF22 binding inactive, RanGTP-Impb inh -1.1, UCH37 DUB inh 1.7, AF4-AF9 inh -4.4, E coli growth 0.63 and Vif A3G inconclusive.
Screening O=C(CCC(=O)N1CCOCC1)NCc1cccc(C(F)(F)F)c1 returned HNF4A DNA FP 2.6, FGF22 binding inactive, UCH37 DUB inh 2.4, AF4-AF9 inh 0.7, E coli growth 0.69 and Vif A3G 0%.
Cn1c(CNc2cccc(Cl)c2)nnc1SCC(=O)OC1CCCCC1 was read as HNF4A DNA FP -1.6, RanGTP-Impb inh -2.5, UCH37 DUB inh 7.0, E coli growth 0.65 and Vif A3G 1%.
For O=C(CCN1C(=O)c2ccccc2C1=O)Nc1ccc(S(=O)(=O)NC2=NCCCCC2)cc1 the results were HNF4A DNA FP 2.9, UCH37 DUB inh 3.0, E coli growth 0.73 and Vif A3G 4%.
For O=C(NNc1ccc([N+](=O)[O-])cc1[N+](=O)[O-])c1ccco1 the results were HNF4A DNA FP 3.3, RanGTP-Impb inh 0.2, UCH37 DUB inh 18 and E coli growth 0.64.
Screening CCOC(=O)c1cnc(SC)nc1Nc1cccc(F)c1 returned HNF4A DNA FP 5.7, RanGTP-Impb inh -3.2, UCH37 DUB inh 5.1, E coli growth 0.73 and Vif A3G 14%.
`Cc1cc(C(=O)COc2ccc(Br)cc2F)c(C)n1CC1CCCO1` (stereo unspecified) gave HNF4A DNA FP -2.4, FGF22 binding inactive, AF4-AF9 inh 2.2 and Vif A3G 0%.
C/C(=N\NC(=O)CNC(=O)c1cccs1)c1ccc(Cl)c(Cl)c1 was read as HNF4A DNA FP -0.3, FGF22 binding inactive, RanGTP-Impb inh -2.7 and AF4-AF9 inh 2.8.
Screening CC(C)c1ccc(NC(=O)CSc2nnc(-c3ccccn3)n2C)cc1 returned HNF4A DNA FP -0.2, RanGTP-Impb inh 2.8, UCH37 DUB inh 5.1, E coli growth 0.68 and Vif A3G 9%.
For O=C(Nc1ccccc1)c1cnc(-c2ccccc2)nc1-c1ccccc1 the results were HNF4A DNA FP 0.1, RanGTP-Impb inh -2.3, UCH37 DUB inh 8.5, E coli growth 0.76 and Vif A3G -5%.
CS(=O)(=O)N(CC(=O)N1CCN(Cc2ccccc2)CC1)c1ccc2c(c1)OCCO2 was read as HNF4A DNA FP 3.1, FGF22 binding inactive, RanGTP-Impb inh -1.8, UCH37 DUB inh 2.9, AF4-AF9 inh 2.5, E coli growth 0.67 and Vif A3G 63%.
Screening Cc1cccc(N2CCN(CC(=O)Nc3nccs3)CC2)c1C returned HNF4A DNA FP 0.1, RanGTP-Impb inh -0.9, UCH37 DUB inh 1.6, E coli growth 0.76 and Vif A3G 70%.
`O=C1CC(c2ccccc2)CC2=C1C1(CCCC1)N=C(Nc1nc3ccccc3o1)N2` (stereo unspecified) gave HNF4A DNA FP 0.0, FGF22 binding inactive and AF4-AF9 inh -1.7.
`CCCCn1c(CNC(=O)CCC)nc2ccccc21` gave HNF4A DNA FP -0.6, FGF22 binding inactive, RanGTP-Impb inh -2.2, UCH37 DUB inh 2.3, AF4-AF9 inh 0.5, E coli growth 0.69 and Vif A3G 0%.
`COC(=O)[C@@]12C[C@@H](CC(=O)NCc3cccc(C(F)(F)F)c3)C(=O)N(CCc3ccc(OC)c(OC)c3)C1=CCC(C)(C)C2` gave HNF4A DNA FP 0.1, FGF22 binding inactive and AF4-AF9 inh -3.1.
CC1Cc2ccccc2N1C(=O)Cn1c(=O)cc(O)c2ccccc21 (stereo unspecified) was read as HNF4A DNA FP 3.5, RanGTP-Impb inh -3.0, UCH37 DUB inh 6.4, E coli growth 0.65 and Vif A3G 6%.
Screening CCN(CC)S(=O)(=O)c1cccc(C(=O)OCC(=O)NC(C)c2ccccc2)c1 (stereo unspecified) returned HNF4A DNA FP 5.5, FGF22 binding inactive, RanGTP-Impb inh 2.4, UCH37 DUB inh 2.0, AF4-AF9 inh -2.3, E coli growth 0.71 and Vif A3G inconclusive.
Screening CCOC(=O)N1CCN(C(=O)Cn2ccc3c(OC)cccc3c2=O)CC1 returned HNF4A DNA FP 1.8, FGF22 binding inactive, RanGTP-Impb inh 8.1, UCH37 DUB inh -1.0, AF4-AF9 inh -14 and E coli growth 0.67.
